Screening data (PubChem BioAssay)
RanGTP-Imp inh: inhibitors of RanGTP-importin-beta interaction, primary screen, biochemical, FRET, CFP-Ran, YFP-importin-beta, homogeneous; hit rate 1.1% among 300,000; cell-free CFP-Ran/YFP-importin-beta FRET ratio; inhibition, % (concentration not given with the values); AID 2216, 2009;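 active means most replicates above 15%; inconclusive means exactly half above 15%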;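 further: 0% = DMSO wells and 100% = Ran loaded with GDP instead of GTP; wells of about 40 µL received 100 nL stock; the first replicate is given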
Beta cell apopt: inhibitors of cytokine-induced beta cell apoptosis, primary screen, luminescence. hit rate 0.8% among 300,000. protection from apoptosis, % (test concentration not listed). INS-1E cytokine-induced death, ATP luminescence, 48 h; percent of positive-control rescue, neutral wells zero;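 active means all replicates at 75% or more, or half of them and the mean; inconclusive means half reach 75% but not the mean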;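 further: 0% = cytokine-treated negative control wells and 100% = positive control rescue; higher means more ATP so stronger rescue from cytokine killing; wells of about 40 µL received 100 nL stock; the first replicate is given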
Calb FLC: C. albicans growth inhibition with fluconazole, primary screen, CaCi-2 strain, Alamar Blue fluorescence. C. albicans CaCi-2 (fluconazole-resistant clinical isolate) + fluconazole, 48 h. growth inhibition, % (concentration not given with the values). hit rate 0.57% among 300,000. AID 1979, 2009;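 active means most replicates above 75%; inconclusive means exactly half above 75%; inactive means most below 75%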;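 further: all wells also contain fluconazole at 8 µg/ml as a sub-toxic cotreatment; 0% = median of DMSO wells and 100% = median of geldanamycin control wells; wells of about 8 µL received 7.5 nL stock; the first replicate is given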
MLL AF4-AF9 inh: inhibitors of AF4 peptide binding to AF9, primary screen, biochemical, AlphaScreen, biotin-AF4 peptide, FLAG-AF9, single point | Protein AF-9 (Homo sapiens), P42568 | inhibition, % at 10 µM | hit rate 0.47% among 350,000;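 active means every replicate reaching a set inhibition limit, whatever the replicate mean, cut at about 25% in these data; inconclusive means mean inhibition reaches that limit but some replicates miss it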;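 further: 0% = plate neutral control median and 100% = total signal loss; the record names both 10 and 1 µM as test concentration; the first replicate is given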
Target sequence (P42568 whole entry, looked up): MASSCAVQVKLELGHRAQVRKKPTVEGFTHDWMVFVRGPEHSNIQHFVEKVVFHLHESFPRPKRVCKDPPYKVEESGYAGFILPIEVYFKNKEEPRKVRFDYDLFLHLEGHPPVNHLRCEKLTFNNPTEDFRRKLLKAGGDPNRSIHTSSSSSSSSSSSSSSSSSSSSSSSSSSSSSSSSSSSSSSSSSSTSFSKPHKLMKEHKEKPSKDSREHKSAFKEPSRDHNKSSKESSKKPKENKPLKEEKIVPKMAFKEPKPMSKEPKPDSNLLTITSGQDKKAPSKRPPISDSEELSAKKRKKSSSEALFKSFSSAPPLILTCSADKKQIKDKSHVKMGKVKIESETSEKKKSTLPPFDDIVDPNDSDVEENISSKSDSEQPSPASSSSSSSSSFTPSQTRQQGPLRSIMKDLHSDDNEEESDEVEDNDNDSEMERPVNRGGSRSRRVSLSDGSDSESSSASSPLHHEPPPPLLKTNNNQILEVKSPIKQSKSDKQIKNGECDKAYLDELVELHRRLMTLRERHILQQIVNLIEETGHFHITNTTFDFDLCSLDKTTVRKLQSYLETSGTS
Vif TR-FRET: inhibitors of Vif binding to APOBEC3G peptide, primary screen, biochemical, TR-FRET, GST-Vif 1-94, biotin-A3G peptide, dose response retest (AID 1117319). TR-FRET GST-Vif / biotin-A3G peptide binding; higher % means a stronger effect; test concentration not given here; strong numbers were not always called active. inhibition, %, or IC50 in µM where a hit was titrated. hit rate 0.57% among 260,000;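 active means above the screen mean plus three standard deviations and confirmed in dose response; inconclusive means results disagree or hit not tested in dose response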;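 further: Vif residues 1-94 fused to GST binding biotinylated APOBEC3G peptide 110-148; 0% = full assay without inhibitor and 100% = GST in place of GST-Vif; retest series ran down from 100 µM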
T cruzi inh: inhibitors of intracellular T. cruzi growth, primary screen, luminescence, NIH3T3 host cells; T. cruzi beta-gal in NIH3T3, 90 h; inhibition, % (concentration not given with the values); hit rate 1.4% among 300,000; AID 1885, 2009;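 active means mean inhibition across valid replicates above about 55%, limit read from the data; inconclusive means mean below that limit but half or more replicates reach it; inactive means mean below it, under half of replicates reach it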;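 further: signal also drops with host cell toxicity which is not excluded here; 0% = plate median of DMSO wells and 100% = zero luminescence signal; higher percent means less beta-gal luminescence so fewer parasites; stock transfer was 50 nL into about 50 µL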
Ecoli rRNA inh: reduced GFP signal of wild-type E. coli, primary screen, bacterial rRNA inhibitor project, GFP/RFP fluorescence, OD600, single point; E. coli WT GFP vs humanized-ribosome RFP mutants, 24 h; active compounds read low; DMSO median 0, no signal -100; GFP signal change (wild-type ribosome), % (no concentration beside the values); hit rate 1.6% among 350,000;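 active means significant combined selectivity score with lowered wild-type GFP, culture density cut under 30%, mutant RFP and density less affected; inactive means any of these conditions unmet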; further: one replicate is shown; some compounds called inactive have numbers as strong as hits
A1 inh: caspase 3/7 activation in MEF A1-2A-BIM cells, primary screen, A1 inhibitor project, cell-based, luminescence, HTS | Caspase-Glo 3/7 luminescence, 3 h; percent of clofoctol response, vehicle zero | caspase activation, % (concentration not given with the values) | AID 2462, 2010 | hit rate 0.066% among 330,000;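 active means over half of replicate activation scores above 10%, or exactly half above 10 with the replicate mean above 10; inconclusive means replicate mean below 10 yet half the replicates above 10; inactive means over half of replicates below 10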;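 further: wells of about 30 µL received 50 nL stock; many hits fall short of the cut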
Ecoli rRNA inh OD600: second read-out of Ecoli rRNA inh, no call of its own (marks repeat the call); OD600 change, %; measured here: OD600 growth;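 optical density of the mix in the first replicate; 0 = DMSO median and -100 = no signal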
Ecoli rRNA inh RFP: also measured in Ecoli rRNA inh; calls as there; RFP signal change, %; measured here: RFP humanized mutant strains;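 first replicate; 0 = DMSO median and -100 = no signal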
Active calls of the source: *; ? = inconclusive; nt = no result given; & = joins results of further samples. A portion of the library; rates above refer to the full screens.

SMILES	Calb FLC	MLL AF4-AF9 inh	Ecoli rRNA inh RFP	Ecoli rRNA inh	A1 inh	RanGTP-Imp inh	Vif TR-FRET	T cruzi inh	Ecoli rRNA inh OD600	Beta cell apopt
CCCCCN(C(=O)COC(=O)Cc1c(C)nc2ccccc2c1C)c1c(N)n(CCCC)c(=O)[nH]c1=O	27	-0.7	2.4	-7	-0.4	0.3	4%	0	-17	-10
O=C(CN1C(=O)CCS(=O)(=O)c2ccccc21)NCc1ccc(F)cc1	-7	nt	nt	nt	0.0	6.2	26%	-7	nt	5
Cc1ccc(S(=O)(=O)Nc2ccc(Br)cc2/C=N/n2cnnc2)cc1	-2	nt	nt	nt	0.5	-33	-2%	-16	nt	6
O=C(Cn1ncc2c([nH]c3ccccc32)c1=O)N1CCOCC1	16	-0.3	-0.3	-1	0.0	4.2	nt	-23	-2	-3
O=C(NCc1ccco1)c1ccc(-c2cccc(Cl)c2)o1	9	1.4	2.3	-5	0.2	1.1	nt	-6	-3	-13
Cc1cc(C)nc(SCC(=O)N/N=C/c2cccn2-c2cccc(C(F)(F)F)c2)n1	0	nt	nt	nt	0.4	-2.6	5%	8	nt	-4
Cc1ccccc1OC1C(=O)N(Cc2ccc3c(c2)OCO3)C1c1sccc1C (stereo unspecified)	-5	nt	nt	nt	1.0	4.8	-7%	46	nt	79*
COc1ccc(S(=O)(=O)N2c3ccccc3OCC2CC(=O)O)cc1 (stereo unspecified)	-10	-0.7	1.0	-3	1.0	0.5	-8%	-12	-1	-2
O=C(Nc1ccc(Cl)cc1Cl)Nn1cnnc1	25	0.0	-0.9	6	-0.4	7.0	nt	-16	12	-2
Cc1cccc(C(=O)Nc2scc(-c3ccc(Br)cc3)c2C(=O)O)c1	6	0.2	3.7	5	-2.1	0.2	nt	-14	8	7
COC(=O)c1sc(S(=O)(=O)N2CCN(c3ccccc3)CC2)c(C(=O)OC)c1C	-3	nt	nt	nt	-0.6	6.8	3%	15	nt	-12
COc1cccc2cc(-c3nnc(SCC(=O)Nc4nc(C)cs4)n3C)oc12	-10	nt	nt	nt	0.1	1.5	6%	-4	nt	-3
Cc1cc(C)cc(C(=O)OCC(=O)Nc2cccc(S(=O)(=O)NC3=NCCCCC3)c2)c1	-3	nt	nt	nt	0.0	?	3%	-6	nt	0
O=C(NCc1cccc(F)c1)C1CCN(C(=O)c2sccc2-n2cccc2)CC1	36	5.7	-1.5	-8	1.0	-1.7	-10%	-4	-6	-17
CN(C)C(=O)C1OC(C)(C)OC1C(=O)N(C)C (stereo unspecified)	-2	nt	nt	nt	0.5	5.3	2%	4	nt	-4
Cc1cc(NC(=O)COC(=O)c2ccc(S(=O)(=O)N3CCCc4ccccc43)cc2)no1	6	nt	nt	nt	0.0	2.3	5%&-2%	-16	nt	1
CCc1cc(=O)oc2c(C)c(OCC(=O)NCCCN3CCCC3=O)ccc12	1	0.5	2.3	3	-1.9	7.3	nt	-15	6	4
CC(O)(CC(=O)O)CC(=O)O	0	nt	nt	nt	1.1	-1.4	nt	-19	nt	4
CC(C)CCNC(=O)c1c[nH]c2ccc(S(=O)(=O)N3CCC4(CC3)OCCO4)cc2c1=O	-1	nt	nt	nt	-0.1	-6.2	-25%	0	nt	-1
Cc1nn(-c2ccccc2C(=O)O)c(=O)c2ccccc12	-5	nt	nt	nt	0.7	-1.6	0%	10	nt	-1
NC(=O)c1ccc(Oc2ccc(Cl)c3ccccc23)c([N+](=O)[O-])c1	-1	nt	nt	nt	0.3	5.4	-11%	-4	nt	0
CCc1ccc(N2CC(O)=C(c3nc4ccccc4c(=O)[nH]3)C2=N)cc1	29	0.3	1.8	25	0.4	0.1	-11%	8	15	0
COc1ccc(CCNC(=O)c2cc(-c3ccc(C)cc3O)n[nH]2)cc1OC	33	nt	nt	nt	-0.9	3.4	8%	-19	nt	4
Cc1ccc(F)cc1NC(=O)N1CCCN(c2ccc(C(F)(F)F)cn2)CC1	-3	nt	-1.8	-15	-0.5	-1.5	22%	7	-10	3
CCOC(=O)Cn1c(C(=O)OCC)cc2sccc21	-18	nt	-0.8	0	-0.1	-2.1	-7%	-1	-4	-11
CCC1Oc2ccccc2N(CC(=O)NCCCN2CCN(CC)CC2)C1=O (stereo unspecified)	-4	0.8	2.8	12	0.9	9.6	6%	-5	13	-1
Cc1nc2ccc(S(=O)(=O)NC(C(=O)NCc3ccco3)C(C)C)cc2s1 (stereo unspecified)	3	-2.3	0.4	9	-0.2	?	-1%	-13	5	nt
O=C(NCc1ccccc1)C1(C(F)(F)F)C/C(=C\CCO)CCCO1 (stereo unspecified)	-6	-6.5	15	-1	0.1	0.2	nt	-4	10	-7
O=S(=O)(/N=C(/Nc1ccccn1)c1ccccc1)c1ccc(F)cc1	-3	-4.7	-0.1	2	-1.3	6.8	nt	-14	-7	1
O=C(C1CCCN(S(=O)(=O)c2cccc3nonc23)C1)N1CCN(c2cccc(Cl)c2)CC1 (stereo unspecified)	26	nt	nt	nt	-0.8	?	1%	36	nt	1
CSc1ccc(CNC(=O)C2Cc3cc(S(=O)(=O)N4CCCCC4)ccc3N2C(C)=O)cc1 (stereo unspecified)	-8	-1.4	7.7	20	0.5	-1.6	nt	7	12	nt
O=C(NCCOc1ccc(F)cc1)C1CCC(=O)N(CCCN2CCCC2=O)C1 (stereo unspecified)	33	-2.1	0.4	10	0.1	2.5	nt	-5	14	1
CCOC(=O)c1c(NC(=O)C2=C(C)NC(=S)NC2c2ccc(CC)cc2)sc(C)c1C (stereo unspecified)	-7	nt	nt	nt	0.5	?	8%	39	nt	5
CCN(CC)CCNc1nc(-c2ccc(OC)cc2)c(-c2ccc(OC)cc2)s1	-4	16	-1.7	-28	0.4	0.9	7%	20	-47	-5
COc1ccc(N2C(=O)CC(NCCNc3ccc([N+](=O)[O-])cn3)C2=O)cc1 (stereo unspecified)	3	nt	nt	nt	0.4	0.8	8%	-10	nt	-4
Cc1sc2ncnc(OCC(=O)N3CC(=O)Nc4ccccc43)c2c1C	39	-1.0	5.9	9	0.7	nt	nt	nt	3	-2
C=CCNc1nc(Cl)nc(Nc2ccc(OC)cc2)n1	2	nt	nt	nt	-0.7	-4.7	1%	-15	nt	-11
CCOC(=O)C1=C(C)OC2(O)c3ccccc3C(=O)C12O (stereo unspecified)	-4	nt	-0.4	7	1.0	1.0	15%	-12	-7	-5
Cn1c2ccccc2c(=O)c2c(=O)n(C3CCCCC3)c(-c3cccs3)nc21	42	nt	nt	nt	0.2	3.5	-8%	?	nt	42
O=C(O)C(c1ccccc1)N1CCCC1 (stereo unspecified)	0	nt	nt	nt	1.9	1.1	13%	-2	nt	1
O=S(=O)(c1ccccc1)N(CC(O)CN1CCCCC1)c1ccccc1 (stereo unspecified)	-1	nt	nt	nt	0.0	3.6	?	2	nt	-2
Clc1ccc2oc(-c3cccnc3NCc3ccccc3)nc2c1	-3	nt	nt	nt	0.7	5.0	2%	14	nt	-1
CCOC(=O)N1CCN(C(=O)c2ccc(NS(=O)(=O)c3ccc(F)cc3)cc2)CC1	-1	-0.4	nt	nt	-0.9	-3.6	10%	1	nt	-1
COc1cccc(/C=C/C(=O)OCC(=O)NCCNC(=O)COC(=O)/C=C/c2cccc(OC)c2)c1	nt	-2.1	1.6	2	-1.7	nt	nt	nt	6	-4
CCn1c(SCC(=O)Nc2nncs2)nnc1C(C)NC(=O)c1ccccc1Br (stereo unspecified)	1	-2.5	0.6	1	0.4	-2.8	nt	-7	3	-3
CC1Sc2ccc(S(=O)(=O)CCC(=O)NCc3cccs3)cc2NC1=O (stereo unspecified)	-5	1.2	0.2	1	-1.3	2.9	2%	-21	2	-4
CC(OC(=O)c1cccc(S(=O)(=O)Nc2cccc(C(F)(F)F)c2)c1)C(=O)Nc1ccc2c(c1)OCCO2 (stereo unspecified)	12	-1.5	37	-22	-0.3	?	4%	4	-36	-9
COc1cccc(C(=O)N2CCN(Cc3nc(CC4CC4)no3)CC2)c1	2	13	-1.8	5	-0.7	0.2	67%	-6	-4	-3
C(=C\c1ccco1)/c1ccc2ccccc2n1	-13	4.8	12	26	-6.5	2.1	5.1µM*	-1	16	1
CCCc1ccc(Oc2coc3cc(OCC(=O)Nc4ccccc4C)ccc3c2=O)cc1	7	1.8	-4.7	-1	0.1	1.5	1%	-12	4	-5
Cc1ccc(-c2nc(CSCC(=O)N3CCN(c4ccccn4)CC3)c(C)o2)cc1	2	2.9	1.5	-13	0.6	-0.9	-3%&-2%	6	-11	23
O=C(Cn1nnc(-c2ccccc2F)n1)N1CCCCC1	-1	0.3	-0.7	10	0.2	1.0	nt	-10	3	nt
COc1ccc(CCNc2ccncn2)cc1OC	-2	nt	nt	nt	-0.2	-5.5	1%	-3	nt	4
CCCCOC(=O)Nc1nnc(C(C)C)s1	-12	-4.4	-4.0	-5	0.1	-0.3	4%	64*	-2	-2
CC(OC(=O)Cc1c[nH]c2ccccc12)C(=O)Nc1ccc(S(N)(=O)=O)cc1 (stereo unspecified)	-2	-1.3	0.5	1	0.1	-0.4	-3%	-4	0	2
CCOC(=O)c1ccc(NS(=O)(=O)c2ccc3[nH]c(=O)[nH]c3c2)cc1	?	nt	nt	nt	0.4	1.9	5%	-9	nt	-8
Cc1oc(-c2ccccc2)cc1C(=O)Nc1ccccc1	-17	nt	nt	nt	0.2	-0.5	9%	12	nt	7
Cc1nc(NC(=O)c2ccco2)sc1-c1csc(Nc2ccc(Cl)cc2Cl)n1	2	4.7	7.6	-7	-2.7	-1.7	16%	59*	-7	11
CCN(CC)S(=O)(=O)c1cccc(NC(=O)CN(C)Cc2cccc(OC)c2)c1	-9	-21	4.1	-15	-0.7	0.0	-5%	5	-13	-6
O=C(CCN1C(=O)c2ccccc2C1=O)C1=NN[C@@H]2C(=O)N(c3ccc4c(c3)OCO4)C(=O)[C@H]12	8	nt	2.9	12	0.7	1.0	-10%	-3	6	-8
Nc1nc2nonc2nc1N1CCCCC1	-12	nt	nt	nt	-1.2	1.0	-1%	7	nt	-1
COc1ccc(S(=O)(=O)NCC2CCC(C(=O)NCc3ccco3)CC2)cc1 (stereo unspecified)	4	nt	nt	nt	0.3	-2.4	0%	-4	nt	-8
